# Screens as filed in PubChem BioAssay.
# Marburg entry inh: qHTS for inhibitors of binding or entry into cells for Marburg Virus | Marburg virus pseudotyped entry inhibition, cell reporter; control for the full effect not named in the record; about a third of the inactives were read at about 46 µM | Potency, µM (highest dose often 37.8 µM), for inactives: at the top dose activity change, negative = inhibition, actives largely listed as inhibitors | 300,000 compounds, 1.8% hits; active = well fitted inhibition curve with a large enough effect; inconclusive = small, poorly fitted or top-dose-only effect, or effect the other way; inactive = flat fitted curve, though single readings scatter; tested in HEK293 cells; about a fifth of its hits are not listed in these tables; further: on the % scale 0 is the no-effect control and ±100 the full control effect; luciferase read-out
# Cruzain inh noDet: qHTS Assay for Promiscuous and Specific Inhibitors of Cruzain (without detergent) | Potency, µM, without a hit: max response, negative = inhibition, usual class: inhibitors | 200,000 compounds, 2.3% hits | AID 1476, 2009 | purified cruzain, Z-FR-AMC fluorescence, no detergent;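 further: plate controls were enzyme without inhibitor for no effect and buffer without enzyme for full effect; nearly all actives have a fitted effect of over 40% in size; top concentration of the series not given in the record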
# Target sequence (P25779 123-467 limits assumed): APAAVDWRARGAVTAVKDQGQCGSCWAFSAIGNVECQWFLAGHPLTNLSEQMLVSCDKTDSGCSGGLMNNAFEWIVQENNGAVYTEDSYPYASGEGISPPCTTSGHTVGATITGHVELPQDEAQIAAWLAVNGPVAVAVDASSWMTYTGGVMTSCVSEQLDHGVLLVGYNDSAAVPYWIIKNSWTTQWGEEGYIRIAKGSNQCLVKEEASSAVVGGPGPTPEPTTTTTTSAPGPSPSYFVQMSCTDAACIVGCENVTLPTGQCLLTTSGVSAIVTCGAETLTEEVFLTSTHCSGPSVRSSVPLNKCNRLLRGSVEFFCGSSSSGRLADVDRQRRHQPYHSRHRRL
#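 Detergent-free condition (0.00005% Triton X-100) in acetate buffer pH 5.5 with DTT. 1.5 nM enzyme and compound were pre-mixed 15 min, then 2 uM Z-FR-AMC substrate added; reaction progress from fluorescence change between first and third reads (60 s).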
# StopGo reporter: High Throughput Screening for Foot and Mouth Disease Virus Antivirals; human cells with a luciferase reporter of 2A StopGo recoding; control for the full effect not named in the record; Potency, µM (highest dose often 57.9 µM), without a hit: at the highest dose signal change, negative = less light; 410,000 compounds, 1.2% hits; active = well fitted falling curve with a large enough effect; inconclusive = small, poorly fitted or top-dose-only effect; inactive = no such curve, though single readings can be large or run the other way; tested in HEK293T cells; further: on the % scale 0 is the no-effect control and ±100 the full control effect; nearly all actives have a fitted effect of over 45% in size; luciferase light after 4 h
# LASV entry inh: qHTS for Inhibitors of binding or entry into cells for Lassa Virus | Potency, µM (top dose mostly 37.9 µM), for the others: at the top dose activity change, negative = inhibition, usual class: inhibitors | Lassa virus pseudotype entry inhibition, cell reporter; control for the full effect not named in the record | AID 540256, 2011 | 300,000 compounds, 1.2% hits; active means well fitted inhibition curve with a large enough effect; inconclusive means small, poorly fitted or top-dose-only effect, or effect the other way; inactive means flat fitted curve, though single readings scatter; tested in HEK293 cells; further: on the % scale 0 is the no-effect control and ±100 the full control effect; nearly all actives have a fitted effect of over 50% in size; luciferase read-out
# NS1 function inh: qHTS Assay for Inhibitors of Influenza NS1 Protein Function; S. cerevisiae slowed by influenza A NS1, growth recovery by OD600; Potency, µM (highest dose often 46.1 µM), without a hit: at the top dose activity, positive = more growth; 270,000 compounds, 0.4% hits; AID 2326, 2010; active means well fitted rising curve with a large enough effect; inconclusive means small, poorly fitted or top-dose-only effect; inactive means no such curve, though single readings can be large or run the other way; further: nearly all actives have a fitted effect of over 50% in size
#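 Recovery from NS1-induced slow growth read by OD600 in budding yeast switched to galactose assay medium (pH 6.0, -URA) at 1:100 dilution. Compound 23 nl per well; the matching strain lacking NS1 serves as control.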
# RE007 growth inh: qHTS Assay for Inhibitors of the HIV-1 protein Vpr; S. pombe RE007 Vpr strain, BacTiter-Glo ATP luminescence, 24 h; control for the full effect not named in the record; AID 651644, 2012; Potency, µM (titrated, usually from 92.2 µM), without a hit: at the top dose activity change, negative = less growth; 360,000 compounds, 0.21% hits; active = well fitted falling curve with a large enough effect; inconclusive = small, poorly fitted or top-dose-only effect; inactive = no such curve, though single readings can be large or run the other way;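 further: on the % scale 0 is the no-effect control and ±100 the full control effect; nearly all actives have a fitted effect of over 50% in size; the assay follows cell death caused by Vpr and the record does not say whether a fall means rescue or toxicity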
#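 Fission yeast RE007 carrying one integrated HIV-1 vpr copy, seeded at OD 0.01 in PMG+AL medium with 23 nL pinned compound. Grown 24 h at 30 degrees; viability read by BacTiter-Glo luminescence after 5 min.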
# Cruzain inh Det: qHTS Assay for Promiscuous and Specific Inhibitors of Cruzain (with detergent); Cruzipain (Trypanosoma cruzi), P25779; purified cruzain, Z-FR-AMC fluorescence, 0.01% Triton; AID 1478, 2009; 200,000 compounds, 0.43% hits; Potency, µM, for the others: max response, negative = inhibition, usual class: inhibitors;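 further: plate controls were neutral wells for no effect and buffer without enzyme for full effect; nearly all actives have a fitted effect of over 40% in size; top concentration of the series not given in the record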
#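 15 min RT preincubation of 1.5 nM cruzain with compound, then 2 uM Z-FR-AMC added; kinetic AMC fluorescence, 60 s delta. Triton X-100 0.01%, pH 5.5.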
# SARS PLpro yeast: qHTS of Yeast-based Assay for SARS-CoV PLP. S. cerevisiae expressing SARS-CoV PLpro, growth rescue; control for the full effect not named in the record. Potency, µM (series often up to 32.9 µM), inactives show at the top dose activity, positive = growth rescue. 330,000 compounds, 0.19% hits; active means well fitted rising curve with a large enough effect; inconclusive means small, poorly fitted or top-dose-only effect; inactive means no such curve, though single readings can be large or run the other way; further: 0% is about no effect; nearly all actives have a fitted effect of over 55% in size; growth read by luminescence after 48 h
# Active calls of the source: *; ? = inconclusive; / = no result given; & = joins results of further samples; [ ] = dose if it differs, or a comment. Unless noted, the call rests on the fitted dose curve; in most records, active means well fitted curve in the direction sought with a large enough effect; inconclusive means small, poorly fitted or top-dose-only effect, or another doubt; inactive means no such curve, though single readings can be large; an effect the other way counts as inactive or inconclusive. Potency means the concentration at half of the fitted maximal effect.
SMILES,Marburg entry inh,Cruzain inh noDet,StopGo reporter,LASV entry inh,NS1 function inh,RE007 growth inh,Cruzain inh Det,SARS PLpro yeast
CCOC(=O)c1cc(-c2ccccc2)n(CC(=O)Nc2ccccc2OCC)c1C,/,-2%,-18%,?,/,/,0.3%,/
CCOC(=O)C1(CCC(C)C)CC(CSc2nc3ccccc3[nH]2)OC1=O (stereo not given),-34%,-3%,/,-29%,-3%,-2%,-12%,-11%
CCN(CC)CCNC(=O)c1ccc(NC(=O)C2CC(=O)N(c3ccc4c(c3)OCCO4)C2)cc1 (stereo not given),1%[46.1 µM],/,-19%,29%,/,-19%,/,-7%
CC1=C(C(=O)Nc2ccccc2C(=O)NCc2ccccc2)SCCO1,4%[46.1 µM],/,17%,-3%[46.1 µM],-37%,-6%,/,-16%
CCOC(=O)c1cnc(SC)nc1Sc1ccccc1,-4%,2%,-20%,-18%,-20%,-13%,1.4%,7%
Cc1ccc2nc(-c3cccc(Br)c3)cc(C(=O)Nn3cnnc3)c2c1,-20%[46.1 µM],/,23%,?,8%,-11%,/,-1%
Cc1[nH]n(-c2ccccc2)c(=O)c1/C=N/NC(=O)COc1ccccc1[N+](=O)[O-],?,-2%,-1%,?,-5%,7%,2.7%,14µM*
COc1ccccc1S(=O)(=O)Cc1ccc(C(=O)N2CCCC2)o1,/,-1%,-10%,/,1%,7%,3.0%,-3%
Cc1ccc(-c2nc(-c3cccnc3)sc2CC(=O)Nc2ccc(C)c(Cl)c2)cc1,?,25µM*,16%,?,-38%,-13%,-2.7%,-32%
Cc1ccccc1-n1nc(C)c2cc(C(=O)N3CCN(S(=O)(=O)c4ccccc4)CC3)sc21,?,-1%,-7%,12%,-44%,-17%,-0.4%,3%

# In the list so far, 2 contain an NH in an aromatic ring:
SMILES,Marburg entry inh,Cruzain inh noDet,StopGo reporter,LASV entry inh,NS1 function inh,RE007 growth inh,Cruzain inh Det,SARS PLpro yeast
CCOC(=O)C1(CCC(C)C)CC(CSc2nc3ccccc3[nH]2)OC1=O (stereo not given),-34%,-3%,/,-29%,-3%,-2%,-12%,-11%
Cc1[nH]n(-c2ccccc2)c(=O)c1/C=N/NC(=O)COc1ccccc1[N+](=O)[O-],?,-2%,-1%,?,-5%,7%,2.7%,14µM*

# Next entries follow.
SMILES,Marburg entry inh,Cruzain inh noDet,StopGo reporter,LASV entry inh,NS1 function inh,RE007 growth inh,Cruzain inh Det,SARS PLpro yeast
S=C(Nc1cccc(Cl)c1)Nc1cccc2cnccc12,-9%&-9%,-14%,-28%,-22%,-29%,-35%,?,-74%
O=C(COc1cccc(Cl)c1)NNC(=S)Nc1ccccc1,/,7%,-6%,12%,-22%,-2%,-2.5%,?
O=C(NC1CC2CCCC(C1)N2Cc1ccccc1)C1CCCCC1 (stereo not given),?,/,-14%,0%,5%,0%,/,-1%
COc1ccc(NC(=O)CN2C(=O)NC3(CCCC3)C2=O)c(OC)c1,0%[46.1 µM],/,-8%,-5%,2%,1%,/,0%
COc1cc(CN2CCC(C(=O)N3CCN(c4ccccc4F)CC3)CC2)ccc1O,?,2%,-21%,-29%,2%,41%,4.6%,5%
Cc1cccc(N(Cc2ccccc2F)S(C)(=O)=O)c1,-1%,2%,4%,6%,1%,16%,-2.3%,-2%
COc1cc(C(=O)N(C)CCOc2ccccc2)ccc1OCC(=O)Nc1cccc(C(F)(F)F)c1,?,/,?,-29%,/,2%,/,/
COc1ccccc1N1CCN(S(=O)(=O)c2ccc3c(c2)NC(=O)CS3)CC1,/,/,?,/,13%,-1%,/,-2%
CN(C)C(=O)C1(c2ccccc2)CCN(S(=O)(=O)c2ccccc2)CC1,15%,15%,-22%,-16%,5%,14%,-2.6%,0%
CC(C)CCNC(=O)NC(=O)COc1ncnc2sccc12,6%,5%,-10%,2%,5%,-12%,2.4%,1%
COc1cc(C(=S)N2CCN(C(c3ccccc3)c3ccccc3)CC2)cc(OC)c1O,/,/,-34%,/,-22%,3%,/,-1%
COC(=O)/C(=C/c1ccccc1)NC(=O)c1ccco1,-3%,-1%,-15%,-10%,5%,-2%,-3.5%,8%
O=C(NCCOc1ccccc1Cl)C(=O)c1c[nH]c2ccccc12,18%,/,12%,17%,/,-27%,/,-4%
O=P1(Oc2ccccc2)OCCCS1 (stereo not given),/,/,35µM*,/,-3%,3%,/,0%
COc1cc(OC)cc(C(=O)Nc2c(C)nn(-c3ccccc3)c2C)c1,?,/,-7%,-28%[46.1 µM],/,13%,/,-4%
O=C(NCc1ccc2c(c1)CCN2C(=O)c1ccccc1)c1ccco1,/,5%,-5%,-13%[46.1 µM],/,/,0.5%,/
CC1CCN(C(=O)c2ccc(SCc3ccccc3F)c([N+](=O)[O-])c2)CC1,0%,0%,13%,?,-6%,-18%,-3.5%,-9%
NC(=O)c1cc(C(=O)Cc2ccccc2)c[nH]1,29%,/,13%,?,12%,7%,/,1%
COc1cc(CNCCN(C)C)c(Br)cc1OCC(=O)NCc1ccccc1,3%,-3%,-1%,2%,5%,-12%,-1.7%,7%
COc1ccc(CNC(=S)Nc2ccc(OC)cc2)cc1,0%,-13%,39%[activator],-16%,13%,9%,-3.3%,11µM*
CC[C@@](C)(NS(=O)(=O)OCC(Cl)(Cl)Cl)c1ccccc1,/,/,3%,/,-35%,-7%,/,-3%
CCC(=O)NCCc1nc2cc(NC(=O)c3ccccc3OC)ccc2n1C,1%,3%,/,-1%,0%,-10%,-2.8%,11%
COc1cccc(-c2nnc(SCC(=O)Nc3ccc(S(N)(=O)=O)cc3)n2C)c1,-21%,5%,-18%,-5%,2%,-9%,-2.5%,4%
O=C(c1ccco1)N1CCN=C1SCc1ccc(F)cc1,/,1%,-1%,/,-42%,-3%,-1.8%,0%
O=S(=O)(NCc1ccccc1)c1ccc(S(=O)(=O)N(Cc2ccccn2)C2CCCC2)cc1,?,13%,/,?,-3%,2%,-4.1%,3%
Cc1c(NC(=O)c2cc(-c3ccc(F)cc3)on2)c(=O)n(-c2ccccc2)n1C,12%&10%[46.1 µM],-9%,-8%&-2%,-2%,0%,6%,-2.5%,-3%
CCOc1ccccc1OCC(=O)Nc1ccc(Cl)cc1Cl,0%[46.1 µM],6%,8%,0%,-14%,-4%,2.6%,3%
CCO[C@@H]1OC(C(=O)N2CCOCC2)=C[C@H](c2ccccc2)[C@H]1CCCO,/,/,-19%,/,-3%,-2%,/,-2%
COc1ccc(OC)c(C2CC(=O)C3=C(C2)NC(=O)CC3c2ccc(O)c(OC)c2)c1 (stereo not given),-10%,4%,0%,-11%,-36%,-2%,-3.5%,-2%
CCN(CC1CCCO1)C(=O)c1cc(COc2ccccc2SC)on1 (stereo not given),13%,/,24%,-4%,-12%,-3%,/,-2%

# The list goes on (three carried over from the part before).
SMILES,Marburg entry inh,Cruzain inh noDet,StopGo reporter,LASV entry inh,NS1 function inh,RE007 growth inh,Cruzain inh Det,SARS PLpro yeast
CCO[C@@H]1OC(C(=O)N2CCOCC2)=C[C@H](c2ccccc2)[C@H]1CCCO,/,/,-19%,/,-3%,-2%,/,-2%
COc1ccc(OC)c(C2CC(=O)C3=C(C2)NC(=O)CC3c2ccc(O)c(OC)c2)c1 (stereo not given),-10%,4%,0%,-11%,-36%,-2%,-3.5%,-2%
CCN(CC1CCCO1)C(=O)c1cc(COc2ccccc2SC)on1 (stereo not given),13%,/,24%,-4%,-12%,-3%,/,-2%
Cn1c(=O)c2c(nc(Oc3ccc4c(c3)OCO4)n2Cc2ccc(F)cc2)n(C)c1=O,18%&18%&18%,-1%,-4%,-22%,9%,-7%,-1.5%,0%
CC1=CC2=NC(=O)/C(=C\c3cc(C)n(-c4cccc(Cl)c4)c3C)C(=N)N2O1,1%,-8%,-26%,13%,-4%,19%,-6.5%,?
CC(OC(=O)CCCNC(=O)c1ccc(Cl)cc1)C(=O)N(C)Cc1ccccc1 (stereo not given),-23%[46.1 µM],/,-15%,-10%[46.1 µM],-17%,-17%,/,0%
CC1CCCCC1NC(=O)c1ccc(S(=O)(=O)N2CCCC2)cc1 (stereo not given),?,0%,-11%,2%,-4%,17%,1.0%,-8%
Cn1c(=O)n(C/C=C/c2ccccc2)c(=O)c2c1nc1n2CCN1c1ccc(Cl)cc1,/,10%,-7%,5%[46.1 µM],/,/,-2.6%,/
O=C(NC1(C(F)(F)F)NC(=O)N(c2ccccc2)C1=O)c1cccs1 (stereo not given),5%,8%,-5%,0%,-2%,2%,0.7%,14%
CC(=O)N1CCc2c(sc(NC(=O)C3CCCN3S(=O)(=O)c3cccs3)c2C(N)=O)C1 (stereo not given),13%,/,28µM*,2%,/,-8%,/,-1%
CCOC(=O)c1cc2c(=O)n3cccc(C)c3nc2n(Cc2ccco2)c1=NC(=O)c1ccccc1,14%&-30%,10%,13%&32%,-1%&-2%,13%,-2%&-5%,-15%,-1%
Cc1ccc(Cn2c(=O)n(-c3ccc(C)c(C)c3)c(=O)c3c(C)c(C)sc32)cc1,12%[46.1 µM],-3%,-23%,2%[46.1 µM],/,/,-0.4%,/
Cc1ccc(Nc2c([N+](=O)[O-])cc(C(=O)N3CC(=O)Nc4ccccc43)cc2[N+](=O)[O-])c(C)c1,-51%,-11%,0%,?,-9%,-5%,-4.7%,8%
CC(Sc1ncccn1)C(=O)NC1(C#N)CCCCC1 (stereo not given),-4%,/,-6%,-6%,/,14%,/,-10%
COc1ccc(Cl)cc1-c1n[nH]c(=S)n1C,?,-12%,-6%,0%,12%,-2%,-0.6%,13%
Cc1ccc(SC[C@H](Cc2ccccc2)N2CCN(CC(C)C)CCC2=O)cc1,/,/,0%,/,-39%,-20%,/,-1%
